Mtb growth – M. tuberculosis H37Rv growth inhibitors, H37Rv strain (AID 1626); M. tuberculosis H37Rv growth inhibition; higher % means a stronger effect; inhibition, % at 10 µM; hits with a dose series show IC50 in µM; 0.95% of 220,000 active;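 active = confirmed in a dose series; inconclusive = inhibition above 80% but not taken into the dose series; inactive = below 80% or under 30% at every dose of the series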;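 also: bacteria incubated seven days before Alamar blue readout; 0% = bacteria only wells and 100% = bacteria with antibiotic wells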
Mtb betalactam – beta-lactam sensitization of Mtb H37Rv; M. tuberculosis H37Rv growth with meropenem, percent inhibition; hits of this screen are not shown here; 0.27% of 330,000 active; inhibition, % at 25 µM;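 active = about 74% or more and at least 40 points above the plate without the antibiotic, then above 30% in a dose series; inconclusive = first-round hits that could not be retested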;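 also: growth measured after seven days incubation then overnight dye step; 0% = bacteria only wells and 100% = bacteria with antibiotic; twin plates without the antibiotic show which effects depend on it; some results filed as inactive read as strong as hits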
RecA intein inh – inhibitors of M. tuberculosis RecA intein splicing | AID 2221 | inhibition, %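 (about 9 µM by stock and volumes)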 | 0.75% of 290,000 active | cell-free RecA intein splicing, fluorescence; in the data active = inhibition above about 30%; inconclusive = no clear call, values can overlap the other calls;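 also: 0% = vehicle wells and 100% = reference inhibitor control wells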
Target sequence (P9WHJ3 whole entry, looked up): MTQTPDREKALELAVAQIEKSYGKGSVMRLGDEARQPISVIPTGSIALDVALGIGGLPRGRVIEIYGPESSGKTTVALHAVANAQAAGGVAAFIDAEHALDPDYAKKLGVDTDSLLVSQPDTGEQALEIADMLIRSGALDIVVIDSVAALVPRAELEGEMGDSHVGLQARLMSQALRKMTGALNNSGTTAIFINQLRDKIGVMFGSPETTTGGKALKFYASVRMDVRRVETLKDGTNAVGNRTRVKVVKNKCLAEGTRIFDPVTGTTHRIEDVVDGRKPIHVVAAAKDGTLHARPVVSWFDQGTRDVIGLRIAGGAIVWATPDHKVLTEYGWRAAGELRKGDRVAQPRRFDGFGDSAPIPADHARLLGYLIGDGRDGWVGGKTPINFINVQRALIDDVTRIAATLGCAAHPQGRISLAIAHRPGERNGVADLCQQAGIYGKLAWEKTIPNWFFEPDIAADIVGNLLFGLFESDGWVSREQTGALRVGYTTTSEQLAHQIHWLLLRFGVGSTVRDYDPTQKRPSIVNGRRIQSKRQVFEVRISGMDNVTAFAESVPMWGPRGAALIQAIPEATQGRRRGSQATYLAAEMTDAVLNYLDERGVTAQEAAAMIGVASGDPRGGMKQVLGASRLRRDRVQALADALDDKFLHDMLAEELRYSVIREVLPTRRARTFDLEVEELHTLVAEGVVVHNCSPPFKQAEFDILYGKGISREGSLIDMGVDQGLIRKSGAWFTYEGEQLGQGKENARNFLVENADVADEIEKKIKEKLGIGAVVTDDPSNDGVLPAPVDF
YopH PTP inh – inhibitors of Yersinia enterocolitica YopH tyrosine phosphatase. fluorescence Ex485/Em525. inhibition, %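 (about 10 µM by stock and volumes)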. 0.16% of 140,000 active. AID 898;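 active = inhibition of 50% or more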;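 also: controls were vehicle for no effect and minimum signal wells for full effect; inactives centre near -20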
Arbovirus anti – blocks arbovirus infection | AID 1251 | inhibition, % at 10 µM | 0.37% of 200,000 active | arbovirus infection cell-based antiviral screen;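 active = inhibition from about 30%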;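 also: bluetongue infection of BSR cells; cell survival read as ATP light after 72 h; 0% = infected wells without compound and 100% = uninfected wells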
Arbovirus anti repeat – second read-out of Arbovirus anti, no call of its own (marks repeat the call); inhibition, %; measured here: 10K subset replicate screen; many hits read low in the repeat;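 first of two repeat runs on a subset; 0% = infected and 100% = uninfected wells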
The depositor's hits bear a star; ? = inconclusive; . = not tested or not shown. The list is partial (hit frequency here may not be typical).

SMILES | Mtb growth | Mtb betalactam | RecA intein inh | YopH PTP inh | Arbovirus anti | others
COC(=O)c1nc2n(n1)C(c1cccc(Cl)c1)C1=C(CCCC1=O)N2 (stereo not drawn) | 3.0% | -4.7 | -2.0 | -40.9 | 7.3 | Arbovirus anti repeat=0.2
CCc1nc(Sc2nc(C)cc(C)n2)c2oc3ccccc3c2n1 | 5.3% | 5.8 | 11.8 | -27.5 | -4.9
O=C(Nc1cccc(C(F)(F)F)c1)/C(=C/c1ccco1)NC(=O)c1cccs1 | . | -1.8 | 3.8 | -31.8 | 0.7
COc1ccc(N2C(=O)C3C(C2=O)C(C(=O)c2ccc(Cl)cc2)N2CCCC32)cc1 (stereo not drawn) | 9.8% | -5.8 | 1.8 | . | .
COc1cc(NC(=O)Nc2ccccc2OC)c(OC)cc1NC(=O)CN1CCCCC1 | 9.2% | 20.2 | 1.7 | 10.9 | -1.0
Cn1cnnc1Sc1ccc(C(=O)OCC(=O)NC2CC2)cc1[N+](=O)[O-] | 1.5% | . | -0.1 | . | 5.3
CCc1ccccc1NC(=O)CN(C)C(=O)Cn1ncc(Cl)c(Cl)c1=O | -11.1% | -5.0 | 4.5 | -17.6 | -41.9
O=C(NCCOc1nc(N2CCCCC2)nc(N2CCCCC2)n1)Nc1ccccc1 | 79.8% | 8.3 | -1.2 | . | 0.6
O=C(CN1CCCCCC1)Nc1ccccc1F | 2.5% | -2.8 | -3.3 | -19.8 | 0.2
CCCC(=O)Nc1c(C)n[nH]c1C | -2.1% | ? | -4.4 | -16.4 | 1.9
COCCNC(=O)c1cccc(OC2CCN(Cc3ccc(C(C)C)cc3)CC2)c1 | . | -0.7 | 1.1 | . | .
CCN1CCN(CCc2nc3cc(NC(=O)COc4ccc(Cl)cc4)ccc3n2C)CC1 | 2.5% | -4.5 | . | . | .
O=C(CCCl)Nc1cc(SCCO)cc([N+](=O)[O-])c1 | -9.4% | 22.3 | -5.6 | -29.6 | 7.8
CN(C)c1ccc(/C=N/N(CCC(=O)NC(C)(C)C)C2=NS(=O)(=O)c3ccccc32)cc1 | . | 3.7 | -70.6 | . | .
COc1ccc(C(=O)CCC(C)(C)[N+](=O)[O-])cc1OC | -7.2% | -11.6 | -2.2 | . | 11.4
Cc1cc(NC(=O)c2ccc(NC(=O)c3cccs3)cc2)no1 | -4.8% | -0.4 | 0.8 | -17.6 | 4.2
CCC1=NN(C(=O)c2ccc(Cl)cc2)C(O)(c2ccccc2)C1 (stereo not drawn) | . | 17.2 | 0.9 | . | .
CC(=O)OCC(OC(C)=O)C(OC(C)=O)C(OC(C)=O)C(=O)Nc1ccc(C)cc1 (stereo not drawn) | 6.1% | 3.1 | 9.3 | -27.3 | -6.5
COc1cc(C(=O)N/N=C/C2CC=CCC2)cc(OC)c1OC (stereo not drawn) | -3.0% | -6.2 | 1.2 | -21.1 | -9.7
COc1ccc(NC(=S)NC(C)C(c2ccccc2)N2CCOCC2)cc1 (stereo not drawn) | -4.2% | -8.6 | 2.7 | . | 22.1

Four structures from above, ordered by length of the SMILES, smallest number first:
SMILES | Mtb growth | Mtb betalactam | RecA intein inh | YopH PTP inh | Arbovirus anti | others
CCc1nc(Sc2nc(C)cc(C)n2)c2oc3ccccc3c2n1 | 5.3% | 5.8 | 11.8 | -27.5 | -4.9
CCC1=NN(C(=O)c2ccc(Cl)cc2)C(O)(c2ccccc2)C1 (stereo not drawn) | . | 17.2 | 0.9 | . | .
COCCNC(=O)c1cccc(OC2CCN(Cc3ccc(C(C)C)cc3)CC2)c1 | . | -0.7 | 1.1 | . | .
COc1ccc(N2C(=O)C3C(C2=O)C(C(=O)c2ccc(Cl)cc2)N2CCCC32)cc1 (stereo not drawn) | 9.8% | -5.8 | 1.8 | . | .

(cont.)
SMILES | Mtb growth | Mtb betalactam | RecA intein inh | YopH PTP inh | Arbovirus anti | others
Cc1cccc2sc(N(CCN3CCOCC3)C(=O)CCS(=O)(=O)c3ccccc3)nc12 | . | 1.0 | -2.8 | . | .
COc1ccc(S(=O)(=O)Oc2ccc(C(=S)N3CCOCC3)cc2OC)cc1 | . | 1.4 | -0.1 | . | .
CCOCCCNC(=O)C1(O)c2cc(Br)ccc2NC(=O)N1c1ccc(OCC)cc1 (stereo not drawn) | . | 0.4 | -0.1 | . | .
O=C(NC(Cc1ccccc1)C(=O)O)/C(=C\c1ccc(F)cc1)NC(=O)c1ccccc1 (stereo not drawn) | 4.2% | 5.8 | -1.7 | -22.0 | 3.5
O=C(O/N=C1\CCS(=O)(=O)c2sccc21)C1CC1 | 4.7% | 12.8 | 1.1 | . | 0.1
COc1ccccc1C(=O)NCC(=O)OCC(=O)c1ccc(Cl)s1 | . | 2.1 | 14.7 | . | .
COc1ccc(C(=O)N(CCc2ccccc2)Cc2ccccc2)cc1S(=O)(=O)N1CCOCC1 | . | -16.2 | 0.5 | . | .
C=Cc1cccc(NC(=O)c2ccc(NC(=O)c3ccco3)cc2)c1 | . | ? | 3.9 | . | .
C=CCc1cc(C=C2C(=O)N(C)C(=O)N(C)C2=O)cc(OCC)c1OCc1ccccc1 | 0.4% | 8.8 | 12.0 | -4.2 | -4.2
COc1ccc(N2CCN(S(=O)(=O)c3cc(C)ccc3OC)CC2)cc1 | -13.0% | -8.2 | -2.8 | . | 3.8
Cc1cc(C)nc(N/N=C/C(Cl)=C/c2ccccc2)n1 | -6.8% | -10.9 | -4.7 | -9.8 | 15.1
Cc1cccc(OCCn2c(CCCO)nc3ccccc32)c1 | 1.1% | 4.2 | -4.2 | -43.7 | 4.7
COc1cc(NC(=O)c2ccc(Br)cc2)c(OC)cc1NC(=O)c1ccccc1 | . | 10.0 | -1.7 | . | .
CCOc1cc(C(=O)Nc2cccnc2)cc(OCC)c1OCC | . | 2.0 | -0.1 | . | .
O=C(c1ccc(Cl)cc1)C1CCCN(C(=O)c2csnn2)C1 (stereo not drawn) | 5.5% | -0.1 | 1.9 | . | -2.1
N#CC1=C(N)Oc2cc(N)ccc2C1c1ccccc1F (stereo not drawn) | . | -7.3 | -53.5 | . | .
CCOc1ccccc1NC(=O)COC(=O)CN(C)S(=O)(=O)c1ccc(C)cc1 | 2.4% | 1.0 | -2.4 | -15.7 | -5.5
COc1ccc(OCC(=O)NNC(=O)C2CCCO2)cc1 (stereo not drawn) | -4.0% | -1.0 | 1.8 | -9.4 | 4.0
CCC(C)c1ccccc1NC(=O)C(C)OC(=O)c1ccco1 (stereo not drawn) | . | -8.1 | -2.2 | . | .
Cc1ccc(S(=O)(=O)N2CCC(C(=O)Nc3ccc(S(=O)(=O)N4CCCC4)cc3)CC2)cc1C | . | -5.6 | 2.3 | . | .
O=C(COc1ccc2ccccc2c1Br)Nn1cnnc1 | -6.4% | -5.9 | 3.3 | 1.2 | 14.8
CCCC[C@H]1COCCS(=O)(=O)N1Cc1ccc(F)cc1 | . | -12.9 | 0.3 | . | .
Cc1ccc(C(=O)N2CCCC(C(=O)c3ccc(Cl)cc3C)C2)cn1 (stereo not drawn) | . | -5.1 | 1.4 | . | .
Nc1nc2c(s1)CCc1ccccc1-2 | . | 4.9 | 18.0 | . | .
CCc1cc(Cl)c(OC)c(C(=O)NC[C@@H]2CCCN2CC)c1O | -0.5% | 3.3 | -2.7 | . | .
CC(=O)Nc1nc2c(s1)CCc1ccccc1-2 | . | 3.2 | -0.1 | . | .
COc1ccc2[nH]c(=O)c(CN(C)C(=O)c3cccs3)cc2c1 | 1.2% | -0.9 | 1.0 | . | .
CCSc1nnc(Nc2ccccc2)s1 | -2.9% | -11.1 | 2.5 | -47.2 | 11.6
COc1ccc2c(c1)C(SCC(=O)NCCc1ccccc1)CC(C)(C)O2 (stereo not drawn) | . | -6.0 | 1.6 | -28.7 | 6.2
OCC1(Cc2ccccc2Cl)CCN(C/C=C/c2ccccc2)CC1 | 6.3% | 3.0 | -0.2 | . | -2.0
Nc1ccc(Cl)cc1C(=O)OCC(=O)NC1CCS(=O)(=O)C1 (stereo not drawn) | -0.5% | 1.9 | -1.4 | . | .
CC1Oc2ccccc2N(CC(=O)N2CCCC2)C1=O (stereo not drawn) | . | -1.6 | -1.2 | . | .
CCOc1ccccc1CNc1ccc(N2CCOCC2)c(C(=O)O)c1 | -4.5% | -0.9 | -2.0 | -12.1 | 13.9
CS(=O)(=O)c1ccc2nc(NC(=O)CS(=O)(=O)Cc3ccccc3)sc2c1 | 0.7% | -1.0 | -0.8 | . | 1.6
O=C(CC1(C(F)(F)F)OCCO1)Nc1ccc2c(c1)OCO2 | -1.6% | 10.4 | 0.7 | -28.3 | 0.8
COc1ccc2nc(SCC(=O)NC3CCCC3)c(C)cc2c1 | . | 6.7 | 1.9 | . | .
Cc1ccc2nc(N/N=C/c3ccccc3C#N)nc(-c3ccccc3)c2c1 | 15.4% | 68.4 | -2.7 | -32.6 | -13.9
CCOC(=O)C1=C(C)NC2=C(C(=O)CCC2)C1c1ccc(O)c(OCC)c1 (stereo not drawn) | 8.2% | -11.5 | -6.5 | -7.6 | 15.7
COc1ccc(/C=C2\SC(=N)N(c3ccc(F)cc3)C2=O)cc1OC | -3.0% | 4.8 | -2.4 | . | -10.3
COc1ccc(CNc2cc(C)cc(C)c2)cc1OC | . | 7.4 | 0.1 | . | .
Cc1ccc(-c2cnc(NCc3cc4c(cc3[N+](=O)[O-])OCO4)n2C)cc1C | 1.2% | 73.3 | 4.7 | . | 2.8
N=c1oc2ccccc2cc1C(=O)NCc1ccccc1 | . | -5.5 | 2.1 | . | .
CC1CCc2c(nc3ncnn3c2N2CC(C)OC(C)C2)C1 (stereo not drawn) | 11.1% | 0.5 | -1.1 | -20.8 | 0.3
CC1(C)CC(=O)C(C=Nc2ccccc2)=C(O)C1 | -3.3% | 10.9 | 1.7 | -28.3 | 3.3 | Arbovirus anti repeat=-1.9
Cn1c(CCNC(=O)c2ccco2)nc2cc(NC(=O)C3CCCCC3)ccc21 | -1.6% | -0.8 | -0.3 | -37.3 | 0.0
CCCN(CCC)Cc1c(C(=O)N/N=C/C(C)=C\c2ccco2)nnn1-c1nonc1N | . | -7.6 | 3.3 | . | .
COc1ccc(NS(=O)(=O)c2ccc(OCC(=O)N3CCN(C)CC3)cc2)cc1Cl | . | -19.8 | -1.5 | . | .
C=CCn1c(=O)c2ccccc2n2c(SCC(=O)/C(C#N)=C(\C)N)nnc12 | -8.4% | -7.6 | 2.6 | -54.5 | 8.1
CCC(=O)Nc1ccc(NC(=O)c2ccco2)cc1 | -6.8% | -6.7 | -1.1 | -4.5 | -0.5
COc1ccc(S(=O)(=O)N2CCCCC2)cc1NC(=O)CCNC(=O)c1ccc(Br)cc1 | . | -9.1 | -0.7 | . | .
Cc1ccc(N=Nc2c(N)nn(-c3ccccc3)c2N)cc1 | 3.4% | 10.0 | 2.6 | -18.3 | -19.3
CCC(=O)Nc1nc(-c2ccccc2)nc(SC)c1C(C)=O | 7.2% | 1.4 | -5.6 | . | -3.5
CCCc1nnc(NC(=O)c2cc3ccccc3oc2=O)s1 | ? | 97.8 | -0.1 | -31.3 | 1.6
Cc1ccc(S(=O)(=O)NC(=O)N(C)C2CCCCC2)cc1 | -5.5% | -5.5 | 1.1 | . | .
Cc1ccc(CSc2nnc(NC(=O)C3COc4ccccc4O3)s2)cc1 (stereo not drawn) | . | 8.9 | -0.3 | -29.4 | 55.5*
Cc1cnc(Sc2ncccc2[N+](=O)[O-])nc1 | 1.4% | -7.9 | -0.2 | 16.7 | -0.2
CSc1ccccc1OCc1cc(C(=O)N(C)Cc2cnccn2)no1 | . | -3.8 | 4.2 | . | .
CN(C)CC(=O)c1c[nH]c2ccccc12 | -5.4% | -4.4 | -1.4 | 0.6 | 12.1
O=C(N/N=C/c1cc(Cl)cc([N+](=O)[O-])c1O)NC12CC3CC(CC(C3)C1)C2 | 6.6% | 19.9 | 1.3 | 23.6 | 16.0
O=c1cc(CN2CCN(Cc3ccccc3)CC2)c2ccc(O)cc2o1 | . | 3.9 | -164.7 | . | .

Entries shown so far with a COOH group (two):
SMILES | Mtb growth | Mtb betalactam | RecA intein inh | YopH PTP inh | Arbovirus anti | others
O=C(NC(Cc1ccccc1)C(=O)O)/C(=C\c1ccc(F)cc1)NC(=O)c1ccccc1 (stereo not drawn) | 4.2% | 5.8 | -1.7 | -22.0 | 3.5
CCOc1ccccc1CNc1ccc(N2CCOCC2)c(C(=O)O)c1 | -4.5% | -0.9 | -2.0 | -12.1 | 13.9

Additional records:
SMILES | Mtb growth | Mtb betalactam | RecA intein inh | YopH PTP inh | Arbovirus anti | others
COC(=O)c1nn(-c2ccc(OC)cc2)c(=O)cc1NN | 0.6% | 1.6 | 11.5 | . | -3.6
O=C(NC1=NCCS1)C1Cc2ccccc2CN1C(=O)c1ccccc1 (stereo not drawn) | -11.9% | 2.5 | 2.3 | -22.6 | 2.0
CCOc1ccc(NC(=O)CCNS(=O)(=O)c2ccc3c(c2)CCC(=O)N3)cc1 | -8.2% | -3.4 | 3.1 | -27.6 | 4.0
CN1CCC(N(C)C(=O)c2cc(=O)c3ccccc3o2)CC1 | 18.1% | -11.6 | 1.1 | . | -3.6
